# GIV-Gai inh = blocks GIV peptide binding to rat Galpha-i3. P08753. Galpha-i3/FITC-GIV peptide fluorescence polarization, 90 min; active compounds read low; scaled: aluminum fluoride 0%, vehicle 100%. percent of control (FP), % (test concentration not listed). actives 0.42% (n = 210,000). AID 1224905;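 active = replicate mean at 85% of control or lower, very high polarization wells dropped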;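 also: lower values mean more displacement of the GIV peptide from Galpha-i3; wells of about 15 µL received 100 nL stock; the first replicate is given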
# Target sequence (P08753 whole entry, looked up): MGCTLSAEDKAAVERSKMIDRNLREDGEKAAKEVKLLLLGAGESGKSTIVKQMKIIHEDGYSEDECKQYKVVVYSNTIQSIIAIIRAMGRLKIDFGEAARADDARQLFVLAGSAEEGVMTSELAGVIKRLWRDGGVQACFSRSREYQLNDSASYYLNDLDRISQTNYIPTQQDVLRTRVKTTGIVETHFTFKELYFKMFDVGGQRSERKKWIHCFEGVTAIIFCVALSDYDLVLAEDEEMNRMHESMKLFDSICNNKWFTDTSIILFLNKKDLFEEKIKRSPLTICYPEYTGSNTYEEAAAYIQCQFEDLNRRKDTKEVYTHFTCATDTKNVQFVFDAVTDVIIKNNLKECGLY
# Sa growth inh = S. aureus growth inhibition; actives 0.53% (n = 170,000); AID 720641; S. aureus RN4220 growth, OD600, 20 h, 42 °C; active compounds read low; relative growth, % (test concentration not listed);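 active = growth at 42 °C up to 50% and 20 or more points under that at 30 °C, or under 10% at both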;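 also: 300 nL library stock went into each well; scaled to the means of positive and negative controls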
# HCMV UL50-53 inh = cytomegalovirus nuclear egress complex inhibition; HTRF UL50-UL53 interaction, normalized percent inhibition; inhibition, % (no concentration beside the values); actives 0.15% (n = 190,000); AID 1918969;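 active = both replicates at 50% or more, plus weaker picks with an unusually low signal ratio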;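 also: stock transfer was 100 nL into about 20 µL; 0% = negative control wells and 100% = wells with untagged competitor protein; inactives centre near -12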
# Sa growth inh second temp = second read-out of Sa growth inh, no call of its own (marks repeat the call); relative growth, %; measured here: growth at 30 °C;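 optical density after 20 h as mean of two plates; 100% = untreated growth and lower means inhibition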
# Starred values were filed as active, the others as inactive; x = no result given.
SMILES,GIV-Gai inh,Sa growth inh,Sa growth inh second temp,HCMV UL50-53 inh
CN(C)/C=C/S(=O)(=O)c1ccc(Cl)cc1,106,x,x,19
COc1ccccc1NC(=O)c1cccc(Cl)c1,98,85,82,-14
Cc1nc(C)c(-c2ccnc(N)n2)o1,103,106,104,2
Fc1cccc(CN2CCN(C(=S)NCc3ccco3)CC2)c1,104,106,96,-12
CN(CC(=O)O)C(=O)Nc1ccc(Cl)cc1Cl,106,90,97,-11
COc1ccccc1CC(=O)Nc1ccc(-c2nc3ccccc3[nH]2)cc1,99,138,79,x
O=C(Cn1nnnc1-c1ccccc1F)Nc1cccc2cccnc12,102,x,x,-10
O=C(CNCCN1CCOCC1)Nc1ccc2c(c1)OCCO2,x,87,90,-5
Cc1ccc2nc(SCc3nc(-c4ccc(Cl)cc4)no3)[nH]c2c1,105,112,96,-7
Clc1ccc(Nc2nc(NCCN3CCOCC3)nc(Nc3ccc(Cl)cc3)n2)cc1,x,92,14,1
COc1ccc(-n2nc(C(=O)NCc3ccc(F)cc3)c3c4ccccc4n(C)c3c2=O)cc1,101,108,93,-28
Cc1c(CCNC(=O)c2c(F)cccc2F)sc2nc(-c3ccc(F)cc3)nn12,106,89,102,x
O=C(CCc1nc2ccccc2s1)NCc1cccs1,x,101,87,-32
COc1ccc(S(=O)(=O)Nc2cncc(C(=O)NCc3ccc(C)cc3)c2)cc1,102,113,77,x
COc1ccc(-c2noc(N3CCC(C(=O)NCCCN4CCCCC4)CC3)n2)cc1,104,98,84,-16
C=CCSc1nnc(NC(=O)CSc2nc(C)cc(=O)[nH]2)s1,97,83,54,0
CC(=O)Nc1cccc(-c2nc(Cn3c(=O)oc4ccccc43)no2)c1C,112,x,x,-6
CC(N=C1NS(=O)(=O)c2ccccc21)C(=O)OCc1ccccc1F (stereo unspecified),x,79,88,-4
Cc1nn(C(=O)CC(C)C)c(C)c1S(=O)(=O)N1CCOCC1,104,x,x,-26
O=C1CS/C(=N/S(=O)(=O)c2ccccc2)N1C1CCCCC1,104,85,88,-29
CCSc1ncc(Cl)c(C(=O)Nc2cc(C)ccc2C)n1,102,108,85,-11
Cc1[nH]c2ccccc2c1C1N2CC3(C)CN1CC(C)(C2)C3=O (stereo unspecified),108,96,92,-17
O=S(=O)(Nc1ccc(-c2ccc(N3CCOCC3)nn2)cc1)c1ccccc1Cl,96,x,x,-42
O=C(NCCCN1CCCC1=O)c1ccc(N2CCCC2=O)cc1,102,113,88,x
CSc1ccc(/C=N/n2nnnc2Nc2ccccc2)cc1,x,102,100,-4
CCn1cc(C(=O)NCCc2ccccc2)c(=O)c2cc(S(=O)(=O)N3CCc4ccccc4C3)ccc21,101,102,89,0
Nc1c(C(=O)Nc2ccc([N+](=O)[O-])cc2)sc2nc(-c3cccs3)cc(C(F)(F)F)c12,109,x,x,-10
CCn1c(C(=O)NCCC2=CCCCC2)cc2oc3ccccc3c21,107,114,94,-6
CN1C(=O)CSc2ccc(NC(=O)N3CCN(c4ccccn4)CC3)cc21,100,85,80,-17
CCCCS(=O)(=O)Nc1cc(C(C)(C)C)ccc1O,x,84,86,-12
CCOc1ccccc1/C=c1\s/c(=C(/C#N)C(N)=O)n(CCN2CCOCC2)c1=O,x,92,85,-74
Cc1[nH]c2ccccc2c1SCCNC(=O)c1cccc2ccccc12,105,130,78,x
Cc1ccc(NC(=O)C2CCN(c3nccn4nc(-c5ccc(F)cc5)cc34)CC2)cc1,108,x,x,-24
CCCOc1ccc(NC(=O)CC2C(=O)N(c3cccc(OC)c3)C(=O)N2Cc2cccs2)cc1 (stereo unspecified),102,103,83,x
O=C(COCc1cc(-c2ccc(F)cc2)on1)Nc1cccc(C(F)(F)F)c1,97,112,86,-25
CC(C)(C)/C(=N/O)c1cccs1,106,99,111,2
Cc1cccc(NC(=O)c2ccccc2N)n1,x,103,89,0
COc1ccc(Cl)cc1NC(=O)Cn1cc(C(=O)c2ccncc2)c(=O)c2cc(C)ccc21,108,88,89,x
O=C(N1CCCCC1)C1(c2ccc(Cl)cc2)CCCC1,x,100,94,-18
CCc1ccc(C(=O)c2cn(CC(=O)Nc3ccc(Cl)cc3)c3cc4c(cc3c2=O)OCO4)cc1,104,97,85,11
COCCNC(=O)c1cnc(N2CCCC2)nc1,100,107,88,-13
COc1ccccc1N1CCN(C(=O)CCNS(=O)(=O)c2ccc3c(c2)CCN3C(=O)C2CC2)CC1,108,111,90,x
N#Cc1c(-c2ccc(F)cc2)noc1N,99,88,73,-2
COc1ccc(-c2nc(CSCC(=O)N3CCCC3)c(C)o2)cc1OC,104,x,x,-9
Nc1cc(C(F)(F)F)ccc1-n1cncn1,x,97,92,-11

# Ordered by value in GIV-Gai inh (ascending): three of the compounds above
smiles | GIV-Gai inh
COCCNC(=O)c1cnc(N2CCCC2)nc1 | 100
Cc1[nH]c2ccccc2c1SCCNC(=O)c1cccc2ccccc12 | 105
COc1ccccc1N1CCN(C(=O)CCNS(=O)(=O)c2ccc3c(c2)CCN3C(=O)C2CC2)CC1 | 108

# More structures follow:
SMILES,GIV-Gai inh,Sa growth inh,Sa growth inh second temp,HCMV UL50-53 inh
COC(=O)CCC(=O)Nc1cccc2ccccc12,103,84,87,16
Nc1c(C(=O)NCc2ccccn2)nnn1-c1ccc(OC(F)(F)F)cc1,107,107,90,x
O=C(NS(=O)(=O)c1ccc(Br)cc1)c1ccccc1,105,72,81,x
Cc1ccc(/C=C/c2onc(C)c2S(=O)(=O)N2CCC(C(=O)N3CCOc4ccccc43)CC2)cc1,104,124,108,x
COc1cccc2cc(C(=O)N3CCCCC3)c(=O)oc12,98,118,82,-52
NS(=O)(=O)c1ccc(CCNC(=O)NC2CC(=O)N(c3ccccc3)C2)cc1 (stereo unspecified),101,85,86,-31
Cn1cnc(S(=O)(=O)Nc2ccc(N3CCCCC3)cc2)c1,101,96,80,-8
O=C(Nc1ccccc1Cl)c1ccc(-n2nnc3cccnc32)cc1,111,x,x,-32
Cc1c(CC(=O)NCc2ccccc2)c(=O)oc2c(C)c(O)ccc12,96,111,89,-23
CN(C)c1ccc(CN(C)C2CCCCC2)cc1,109,108,104,-12
COc1ccc(-n2c(=O)c3c(C)c(C)sc3n(CC(=O)NCc3ccc(C)cc3)c2=O)c(OC)c1,103,91,80,-6
Cc1ccccc1NC(=O)CSc1nc2ccccc2c2nc(CCn3c(C)nc4ccccc43)nn12,105,105,89,x
COc1ccc(-c2oc3ncn4nc(COc5ccccc5C)nc4c3c2-c2ccc(OC)cc2)cc1,106,113,87,-44
CCOC(=O)c1ccc(N/N=C2/C(=O)C3(C)CCC2C3(C)C)cc1 (stereo unspecified),106,95,91,-10
O=C(Oc1cccc(Br)c1)c1cc(-c2ccc3c(c2)OCCO3)on1,100,x,x,-10

# As entered above.
# For Sa growth inh, Nc1c(C(=O)NCc2ccccn2)nnn1-c1ccc(OC(F)(F)F)cc1 reads 107
# For HCMV UL50-53 inh, O=C(Nc1ccccc1Cl)c1ccc(-n2nnc3cccnc32)cc1 reads -32
# For GIV-Gai inh, Cc1ccc(/C=C/c2onc(C)c2S(=O)(=O)N2CCC(C(=O)N3CCOc4ccccc43)CC2)cc1 reads 104
# For GIV-Gai inh, COc1ccc(-n2c(=O)c3c(C)c(C)sc3n(CC(=O)NCc3ccc(C)cc3)c2=O)c(OC)c1 reads 103
# For Sa growth inh second temp, Cn1cnc(S(=O)(=O)Nc2ccc(N3CCCCC3)cc2)c1 reads 80
# For Sa growth inh, NS(=O)(=O)c1ccc(CCNC(=O)NC2CC(=O)N(c3ccccc3)C2)cc1 (stereo unspecified) reads 85

# Later entries:
SMILES,GIV-Gai inh,Sa growth inh,Sa growth inh second temp,HCMV UL50-53 inh
Cc1[nH]c2ccccc2c(=O)c1CO,103,99,87,-12
O=c1[nH]cc(C(F)(F)F)c(=O)[nH]1,105,87,86,-22
COc1ccc(CNC(=O)CC2(CC(=O)O)CCCCC2)cc1,101,84,89,-3
CC(=O)N1N=C(c2cccc(C)c2)OC1c1ccccc1C (stereo unspecified),97,22,24,-22
CC1CN(c2ccc3nnc(-c4ccc(C(F)(F)F)cc4)n3n2)CC(C)O1 (stereo unspecified),101,106,84,-6
CC(C)n1cnc(S(=O)(=O)N2CCC(C(=O)Nc3ccc4c(c3)OCO4)CC2)c1,107,x,x,-16
Cc1ccc(CNC(=O)C2CCN(S(=O)(=O)c3ccc4c(c3)CCCN4C(=O)C3CCC3)CC2)cc1,107,114,100,x
Cc1ccc(-c2cn3c(n2)sc2cc(C(=O)NC(C)C)ccc23)cc1,105,104,83,20
O=C1C2=C(Nc3ccccc3SC2c2c(F)cccc2Cl)c2ccccc21 (stereo unspecified),102,100,95,-26
O=C(Nc1cccc(F)c1)C1CCCN(S(=O)(=O)c2cccc3cccnc23)C1 (stereo unspecified),104,106,81,-38
CCOC(=O)CN1C(=O)/C(=C\c2ccc(OC)c(Br)c2)Sc2ccccc21,99,80,90,x
c1cncc(Nc2nnc(-c3cccc4ccccc34)o2)c1,106,91,74,-92
CN(C(=O)c1ccc2c(c1)N(Cc1cccc(Cl)c1)C(=O)c1ccccc1S2=O)C1CCCCC1 (stereo unspecified),101,91,83,x
CCc1ccccc1NC(=O)C1COc2ccccc2O1 (stereo unspecified),106,x,x,-10
Cc1nc(SCC(=O)Nc2ccccc2Cl)cc(-c2ccccc2)n1,102,93,92,23

# Profiles, quoted from the list.
# Cc1ccc(CNC(=O)C2CCN(S(=O)(=O)c3ccc4c(c3)CCCN4C(=O)C3CCC3)CC2)cc1 is entered as GIV-Gai inh = 107; Sa growth inh = 114; Sa growth inh second temp = 100; HCMV UL50-53 inh = x
# CC(=O)N1N=C(c2cccc(C)c2)OC1c1ccccc1C (stereo unspecified) is entered as GIV-Gai inh = 97; Sa growth inh = 22; Sa growth inh second temp = 24; HCMV UL50-53 inh = -22

# No new results follow: 4 of the compounds above.
SMILES,GIV-Gai inh,Sa growth inh,Sa growth inh second temp,HCMV UL50-53 inh
c1cncc(Nc2nnc(-c3cccc4ccccc34)o2)c1,106,91,74,-92
CN(C(=O)c1ccc2c(c1)N(Cc1cccc(Cl)c1)C(=O)c1ccccc1S2=O)C1CCCCC1 (stereo unspecified),101,91,83,x
CCc1ccccc1NC(=O)C1COc2ccccc2O1 (stereo unspecified),106,x,x,-10
Cc1nc(SCC(=O)Nc2ccccc2Cl)cc(-c2ccccc2)n1,102,93,92,23

# Remaining list, next part:
SMILES,GIV-Gai inh,Sa growth inh,Sa growth inh second temp,HCMV UL50-53 inh
Cc1ccc(/C=C/c2onc(C)c2S(=O)(=O)N2CCCC(C(=O)N3CCC(C)CC3)C2)cc1 (stereo unspecified),103,x,x,-13
Cc1cc(Br)cc2c(C(=O)OCC(=O)c3ccccc3)cc(-c3ccccc3)nc12,104,112,100,-7
Cc1ccc(C)c(NC(=O)CCN2C(=O)c3ccccc3Sc3ncccc32)c1,106,103,90,x
COc1ccc(S(=O)(=O)N(CC(=O)Nc2ccccc2Br)Cc2ccccc2)cc1,111,102,88,-29
FC(F)(F)c1ccc(-c2noc(-c3ccccc3Br)n2)cc1,109,125,95,x
CCN(CC)S(=O)(=O)c1cc(-c2nnc(Nc3ccc(OC)c(C(N)=O)c3)c3ccccc23)ccc1C,105,88,66,-102
Cc1noc(C)c1COC(=O)c1ccccc1NC(=O)c1ccco1,x,90,104,15
O=C(O)C(Cc1ccccc1)NS(=O)(=O)c1ccccc1 (stereo unspecified),x,87,92,10
CCN(CC)C(=O)CN1C(=O)COc2ccc(C(=O)N3CCCC3)cc21,102,x,x,-18
CCCn1c(Cn2ccnc2C)nc2cc(NC(C)=O)ccc21,100,x,x,-16
CCOC(=O)COc1c(/C=C2\SC(=S)N(Cc3ccco3)C2=O)cccc1OC,114,106,100,-3
CC(C)c1nc2ccc(C(=O)NCCCN3CCN(c4ccccc4)CC3)cc2o1,108,117,100,x
CCc1ccccc1-n1c(SCC(=O)N2CCCC2)nc2[nH]ncc2c1=O,97,100,86,x
CCOc1ccc(CCNC(=O)C2CCN(c3nc(-c4ccc(OC)cc4)no3)CC2)cc1,104,109,100,-9
COc1ccc(CCNC(=O)c2c(C)nn(-c3ccc(F)cc3)c2-n2cccc2)cc1OC,106,102,92,x
Cc1ccccc1NC(=O)c1ccc2nc(N3CCC(C)CC3)sc2c1,99,122,91,x
COc1cccc(/C=C/c2nc(C#N)c(N3CCN(C)CC3)o2)c1,103,103,96,-98
COc1ccc(CCn2c(SCC(=O)NC3CCCCC3)nc3ccsc3c2=O)cc1OC,101,117,99,8
CC1CC(C)CN(C(=O)COC(=O)c2ccc(C#N)cc2)C1 (stereo unspecified),x,81,86,-12
O=C(NC1CC1)c1ccccc1I,106,100,108,-2
NC(=O)CCNc1cc(C(F)(F)F)cc(C(F)(F)F)c1,107,102,93,6
CC(C)(C)S(=O)(=O)c1cnc(-c2ccc(Cl)cc2)nc1N,104,99,88,-27
CCCCc1c(C(=O)O)cccc1C(=O)O,104,94,105,-5
CN(C)CCn1c2c(c(SCC(=O)Nc3ccccc3)nc1=O)CCCC2,98,78,79,-26
O=C(C1CC1)N1CCN(c2nc3cc(Br)ccc3n3cccc23)CC1,101,x,x,-16
Cc1cc(C)c2c(=O)n(CC(=O)Nc3ccc(Cl)cc3)sc2n1,115,79,51,x

# Source: PubChem
